2A Renilla – lowers the Renilla signal of an FMDV 2A StopGo reporter. Potency, µM (series often up to 57.5 µM), for the others: at the highest dose signal change, negative = less light. HEK cells with a luciferase reporter of 2A StopGo recoding. hit rate 0.32% among 120,000; active means well fitted falling curve with a large enough effect; inconclusive means small, poorly fitted or top-dose-only effect; inactive means no such curve, though single readings can be large or run the other way; also: nearly all actives have a fitted effect of over 55% in size; overnight with compound
StopGo FLuc – lowers the firefly signal of an FMDV 2A StopGo reporter. HEK cells with a luciferase reporter of 2A StopGo recoding. Potency, µM (highest dose often 57.5 µM), without a hit: top-dose signal change, negative = less light. hit rate 0.23% among 120,000. AID 1745856; active = well fitted falling curve with a large enough effect; inconclusive = small, poorly fitted or top-dose-only effect; inactive = no such curve, though single readings can be large or run the other way; also: nearly all actives have a fitted effect of over 60% in size; overnight with compound
* marks the source's active call; other numbers are inactive results; ? = inconclusive; & = joins results of further samples; [ ] = another dose, or the depositor's remark. % is scaled to controls: 0 for no effect and ±100 for the full control effect; potency is read from the fitted curve at half-maximal effect. Not all compounds are listed (hit frequency here may not be typical).

SMILES | 2A Renilla | StopGo FLuc
CCC1CN(C(=O)N2CCC(C(=O)NCc3ccc(C)o3)CC2)c2cc(C)ccc2O1 (stereo not given) | -2% | -26%
CC/C=C(/C)C(=O)NCC(C)(C)N1CCOCC1 | 0% | 9%
COCc1nn2c(c1-c1ccccc1)NC(=O)CC2C(=O)Nc1ccccc1C(F)(F)F (stereo not given) | 10% | -6%
O=C(CCS(=O)(=O)c1ccc(Br)cc1)Nc1ccc(F)cc1F | 10% | -18%
Cc1cccc(C)c1NC(=O)CSc1nc(-c2cccs2)cc(C(F)(F)F)n1 | -7% | -18%
CN1CCN(C(=O)c2ccc3nc(-c4ccc(F)cc4)c(-c4ccc(F)cc4)nc3c2)CC1 | 11% | -8%
Cc1ccc(S(=O)(=O)c2nc(-c3cccs3)oc2SCc2ccc(F)cc2)cc1 | 184%[activator] | -12%
Cc1c(C(=O)NCc2ccc(F)cc2)sc2nc(-c3ccccc3)cn12 | -8% | 7%
O=C(O)c1cc(NCc2ccc(OCc3ccccc3)cc2)ccc1N1CCOCC1 | 28µM* | ?
COC(=O)c1c(NC(=O)c2cc(=O)c3ccc(C)c(C)c3o2)sc2c1CCCC2 | -15% | -13%
COC(=O)c1ccccc1NC(=O)Cn1c(=O)cc(C)c2c(C)nn(-c3cccc(Cl)c3C)c21 | -9% | -12%
CC(=O)C1=C(C)Oc2ncn3nc(COc4cccc(C)c4C)nc3c2C1c1ccco1 (stereo not given) | -7% | -7%
CCCn1c(=O)[nH]c(=O)c2c1nc(-c1cccc(OC)c1)n2CCOC | 8% | 0%
COc1cc2c(c(OC)c1)C(c1ccc(F)c(Br)c1)C1=C(CCCC1=O)N2 (stereo not given) | 0% | -12%
COc1ccc(-c2c(NC(=O)C3CCCCC3)oc3ccccc3c2=O)cc1 | -2% | 25%
CCCCN(Cc1ccccc1)S(=O)(=O)c1ccc2c(c1)CC(C)N2C(=O)CC (stereo not given) | 78%[activator] | 15%
CCc1ccc(C2CC(=O)Nc3c2c(=O)n(C)c2ncnn32)cc1 (stereo not given) | 12% | -7%
Fc1ccc(Nc2nc(Nc3ccc(F)cc3)nc(N3CCOCC3)n2)cc1 | -9% | 2%
CCOC(=O)c1cc(-c2ccc(OC)cc2)n(CCC(=O)Nc2ccccc2OC)c1C | -4% | -12%
O=C(NCc1ccc(Cl)cc1)NCc1noc2ccccc12 | 23% | 91%[activator]
Cc1cc(Oc2cccc(C#N)c2C#N)cc(Oc2cccc(C#N)c2C#N)c1 | 18% | 0%
N#CC(C#N)=c1[nH]c2ccccc2/c1=C\c1ccccc1 | 4% | 4%
CC(OC(=O)c1sc2ccccc2c1Cl)C(=O)N1CCNC1=O (stereo not given) | -7% | 152%[activator]
CNc1c(NS(=O)(=O)c2ccc(CC(C)C)cc2)c(=O)oc2ccccc12 | -10% | -6%
CN(C)c1ccc(C=O)cc1 | 3% | 7%

A draw from above in order of SMILES length, high to low:
SMILES | 2A Renilla | StopGo FLuc
COC(=O)c1ccccc1NC(=O)Cn1c(=O)cc(C)c2c(C)nn(-c3cccc(Cl)c3C)c21 | -9% | -12%
CCCCN(Cc1ccccc1)S(=O)(=O)c1ccc2c(c1)CC(C)N2C(=O)CC (stereo not given) | 78%[activator] | 15%
O=C(O)c1cc(NCc2ccc(OCc3ccccc3)cc2)ccc1N1CCOCC1 | 28µM* | ?

Next records
SMILES | 2A Renilla | StopGo FLuc
O=C(Nc1ccc2nc(SCC(=O)N3CCCc4ccccc43)sc2c1)c1ccccc1F | 3% | 1%
CCCCN(CC)CCCNC(=O)CN1C(=O)CSc2ccc(S(=O)(=O)N3CCOCC3)cc21 | 7% | -21%
COc1ccccc1NC(=O)c1ccc(-c2nc(COc3ccc(C)cc3)c(C)o2)cc1 | 25µM* | ?
Cc1ccc(S(=O)(=O)N2CCOCC2)cc1NC(=O)COC(=O)c1ccccc1C(F)(F)F | -8% | -11%
CCCCCNC(=O)c1cc(-c2ccc(Cl)cc2)nc2ccccc12 | 38%[activator] | 0%
O=C(CSc1ncc(-c2ccc(F)cc2)o1)Nc1ccc(O)cc1 | -13% | 13%
CCOc1ccccc1C(=O)Nc1cc(-c2ccc(C)cc2)no1 | -6% | 4%
CSc1ccc(C2CC(=O)NC3=C2C(=O)CC(C)(C)C3)cc1 (stereo not given) | 14% | 14%
CCc1nonc1NC(=O)c1oc2ccc(C)cc2c1C | -2% | 57%[activator]
COc1ccc2c(C)c(CC(=O)NCCCN3CCCC3=O)c(=O)oc2c1OC | -12% | -2%
Cc1ccc(-c2[nH]ncc2CNCc2cccnc2)cc1 | 11% | 17%
COc1cc(/C=C(/C#N)C(=O)Nc2cccc3ncccc23)ccc1OCC(C)C | 14% | 7%
O=C(Nc1ccc2oc(=O)ccc2c1)c1ccc(Cl)c(Cl)c1 | -2% | 0%
O=C(NCc1coc(-c2cccs2)n1)c1ccc(Cl)cc1Cl | 7% | 1%
O=C(c1cc2ccccc2oc1=O)N(Cc1cccc(Cl)c1)C1CCS(=O)(=O)C1 (stereo not given) | 17%&17% | -6%&-3%
COc1ccc(CNC(=O)c2c3c(nc4ccccc24)C(=O)N(C2CCCCC2)C3)c(OC)c1 | -8% | -7%
Cc1cc(/C=C/c2nc3c(ccc4ccccc43)s2)cc(C)c1O | 18% | 204%[activator]
CCCN(c1c(C)n(C)n(-c2ccccc2)c1=O)S(=O)(=O)c1ccc(C)cc1 | -25% | 21%
O=C(CCn1c(=O)c2cccn2c2cccnc21)N1CCN(c2cccc(C(F)(F)F)c2)CC1 | -15% | -11%
C=CCNC(=O)c1cc(-c2ccccc2Cl)nc2ccccc12 | 5% | -3%
Cc1ccc(CCNC(=O)CCS(=O)(=O)c2ccc3c(c2)NC(=O)CS3)cc1 | 8% | 17%
Cc1ccc(NC(=O)CN(C)S(=O)(=O)c2ccc(C(=O)N3CCOCC3)s2)c(C)c1 | -24% | -19%
COc1ccc2c(c1)CC/C2=N\OC(=O)c1cc(Cl)ccc1OC | 17% | 104%[activator]
Cc1ccc(-c2nc3ccc(C(=O)N4CCC(CC(=O)N5CCCCCC5)CC4)cc3o2)cc1 | 18% | 37%[activator]
CCSc1nc2c(c(=O)n(C)c(=O)n2C)n1CCCc1ccccc1 | 11% | -5%

Carrying on.
SMILES | 2A Renilla | StopGo FLuc
CCOCCCNC(=O)c1cc(=O)[nH]c2ccc(S(=O)(=O)N3CCCC3)cc12 | 2% | -13%
CCc1ccccc1N(C)S(=O)(=O)c1ccc(/C=C\c2onc(C)c2NC(=O)C2CC2)cc1 | ? | ?
Cc1ccc(NC(=O)CN2C(=O)CCc3cc(S(=O)(=O)N4CCOCC4)ccc32)cc1F | 21% | -3%
CCN1c2ccccc2-n2cccc2C12CCN(C(=O)Nc1ccccc1C(F)(F)F)CC2 | -22% | -3%
Clc1ccccc1-n1c(SCc2nc(-c3cccs3)no2)nnc1N1CCCC1 | 4% | ?
COc1ccc(CNC(=O)c2nc(SCc3ccc(C)cc3)ncc2Cl)cc1 | 4% | 10%
Cn1c(=O)c2c([nH]c(=O)n2Cc2ccc(Cl)cc2Cl)n(C)c1=O | 3% | 10%
CCN1CCN(CCNC(=O)C2CCN(S(=O)(=O)c3ccc4c(ccn4CC)c3)CC2)CC1 | 4% | 1%
Cc1noc(/C=C/c2cccs2)c1S(=O)(=O)N1CCC(C(=O)NCc2ccc(Cl)cc2)CC1 | -17% | -14%
Cc1ccc(CN2CCN(C3CCN(S(=O)(=O)c4ccc(C)cc4)CC3)C(=O)C2=O)cc1 | 4% | -7%
CCOc1ncccc1C(=O)N(Cc1nnc(-c2ccccc2)o1)C(C)C | -15% | 54%[activator]
CCN(c1ccccc1)c1nnc(NC(=O)Nc2cccc(Br)c2)s1 | -20% | -15%
COc1ccc(S(=O)(=O)N2CCN(C(=O)NC3CC3)CC2)cc1 | -9% | -6%
O=C1C=C(NCCN2CCOCC2)CC(c2ccco2)C1 (stereo not given) | 0% | 0%
COc1cc(CNc2ncn[nH]2)ccc1OCc1cccc(C)c1 | 9% | 161%[activator]
CCc1nn2c(=O)cc(COC(=O)c3ccccc3NC(=O)COc3ccccc3C)nc2s1 | -12% | -14%
CN(C)C(=O)c1ccc(NC(=O)Cc2cccs2)cc1 | 9% | 182%[activator]
CCN(C(=O)C(C)OC(=O)c1cc(=O)c2ccccc2o1)c1ccccc1 (stereo not given) | -5% | 60%[activator]
O=C(NCCCc1ccccc1)c1cc2cc([N+](=O)[O-])ccc2oc1=O | 0% | -1%
Cc1ccc(NC(=O)c2cc(CN3CCOCC3)on2)cc1Cl | 0% | 113%[activator]
CC(CCN1CCC(C(O)(c2ccccc2)c2ccccc2)CC1)Oc1ccc(Cl)cc1 (stereo not given) | -14% | -14%
CCN(Cc1ccccc1)C(=O)Cn1cnc2c(cnn2C)c1=O | -1% | -6%
COc1ccc(NC(=O)c2cc(C)nc3c2c(C)nn3-c2ccc(C)cc2)cc1OC | -17% | -11%
CCOc1ccc(CCNC(=O)Cn2c(=O)c(=O)n(C)c3ccccc32)cc1OCC | -12% | -11%
CCN(CC)c1nc2ccccc2nc1C(=O)Nc1ccc(C)cc1C | 9% | 10%

Remaining list, next part:
SMILES | 2A Renilla | StopGo FLuc
CCCNC(=O)C1=CC(c2cccs2)=NS(=O)(=O)N1C | 193%[activator] | 0%
Cc1cccc(CCNc2ncnc3onc(-c4ccc(Cl)cc4)c23)c1 | -10% | 5%
COC(=O)c1ccc(COC(=O)c2csc3c2CCCC3)o1 | -15%[1.06 µM] | 38%[activator]
CCOC(=O)OC(C)OC(=O)[C@@H]1N2C(=O)[C@@H](NC(=O)[C@H](N)c3ccccc3)[C@H]2SC1(C)C (stereo not given in full) | -5% | -2%[11.5 µM]
CN(CC(=O)NC1(C#N)CCCCCC1)Cc1ccc(C(F)(F)F)cc1 | ? | ?
COC(=O)c1cc2oc3ccccc3c2n1Cc1nc(-c2cccc(C)c2)oc1C | -11% | 14%
Cc1ccccc1NC(=O)COC(=O)COc1ccc2ccc(=O)oc2c1 | -1% | -3%
CN1C(=O)CC(=O)N(C)c2cc(S(=O)(=O)N(C)Cc3ccccc3)ccc21 | 44%[activator] | 24%
COc1ccc(OC)c(S(=O)(=O)NCC(c2cccs2)S(=O)(=O)c2ccc(F)cc2)c1 (stereo not given) | 107%[activator] | -18%
Cc1ccc(NC(=O)c2cc(S(=O)(=O)N3CCc4ccccc43)cn2C)c(Cl)c1 | 21% | -16%
Cc1ccc(NS(=O)(=O)c2ccc(-c3cnc(C4CC4)o3)cc2)cc1F | 135%[activator] | -26%
CC(=O)OC(C)OC(=O)C(C)c1ccc(-c2ccccc2)c(F)c1 (stereo not given) | 1% | -10%[11.5 µM]
CCc1ccc(-c2ccc(C3CCC(CC)CC3)cc2)nc1 (stereo not given) | 52%[activator] | 237%[activator]
COCCCN(C)Cc1cccc(OC)c1 | -11% | 10%
CCOc1ccccc1NC(=O)Cn1c2ncccc2c(=O)n1-c1ccc(C)c(C)c1 | -6% | -22%
COc1ccc(-c2c(C)c3ccc(O)c(CN4CCCCC4)c3oc2=O)cc1OC | -7% | -12%
COc1ccc(-c2csc(NC(=O)c3nn(C(C)C)c(=O)c4ccccc34)n2)cc1 | 4% | 10%
Cc1ccc(S(=O)(=O)Nc2nc3n(n2)C(c2ccc(F)cc2)C=C(c2ccccc2)N3)cc1 (stereo not given) | -2% | 22%
Cc1ccc2nc(CN3CCN(S(=O)(=O)c4cccc(C(F)(F)F)c4)CC3)cn2c1 | 1% | -4%
COc1ccccc1NC(=O)CC(C)n1nc(C)cc1C (stereo not given) | -8% | -12%
CC(=O)Nc1ccc2oc(-c3ccccc3)nc2c1 | 15% | 0%
COCCn1c(SCCOc2ccc(Cl)cc2)nnc1-c1ccccc1 | 45%[activator] | -10%
Cc1ccc(S(=O)(=O)c2nnn3c2nc(NCc2ccc(F)cc2)c2sccc23)cc1 | -11% | -23%
Cc1nc2nc(NCc3ccc(Cl)cc3)[nH]n2c(=O)c1C | 2% | -2%
O=C(Nc1cccc(F)c1)c1cccc2c1C(=O)N(C1CCCCC1)C2 | 1% | -11%

Fetched by structure from above:
SMILES | 2A Renilla | StopGo FLuc
Cc1ccc(NC(=O)c2cc(S(=O)(=O)N3CCc4ccccc43)cn2C)c(Cl)c1 | 21% | -16%
Cc1ccc(S(=O)(=O)c2nnn3c2nc(NCc2ccc(F)cc2)c2sccc23)cc1 | -11% | -23%

Filtered by structure: the entries above containing bromine (3)
SMILES | 2A Renilla | StopGo FLuc
O=C(CCS(=O)(=O)c1ccc(Br)cc1)Nc1ccc(F)cc1F | 10% | -18%
COc1cc2c(c(OC)c1)C(c1ccc(F)c(Br)c1)C1=C(CCCC1=O)N2 (stereo not given) | 0% | -12%
CCN(c1ccccc1)c1nnc(NC(=O)Nc2cccc(Br)c2)s1 | -20% | -15%

The list continues:
SMILES | 2A Renilla | StopGo FLuc
CCC(C)(C)NC(=O)c1ccc2ccccc2c1 | 21% | 221%[activator]
CCCCn1c(=O)n(CC(O)COc2ccc(CC)cc2)c(=O)c2c1ncn2CCOC (stereo not given) | -8% | -5%
CSc1ccc(CCNC(=O)Cn2nc(C)n3c(cc4sccc43)c2=O)cc1 | -12% | -24%
Fc1ccc(-c2nnc(COc3cccc(Cl)c3)o2)cc1 | 47%[activator] | 162%[activator]
CC(=O)Nc1ccc(NC(=O)CN(C)S(=O)(=O)c2ccc3c(c2)CCCC(=O)N3)cc1 | 15% | 24%
O=C(c1ccc(Cn2nnc3ccccc32)cc1)N1CCN(S(=O)(=O)c2ccc(F)cc2)CC1 | ? | ?
O=C(CSc1ncc(S(=O)(=O)c2ccc(Cl)cc2)c(=O)[nH]1)Nc1cccc(C(F)(F)F)c1 | 2% | -9%
NC(=O)CN1CCC(NC(=O)c2cccc(F)c2)CC1 | -1% | 6%
O=C(Cn1cc(SCc2ccc(Br)cc2)c2ccccc21)N1CCCCC1 | 8% | 35%[activator]
CC(NC(=O)c1ccc(Cl)o1)c1ccc(C(F)(F)F)cc1 (stereo not given) | -16% | -18%
